Bioassay records from PubChem.
HIV Env fusion: blocks HIV Env-driven cell-cell fusion | HeLa-JRFL Env/CEM21 cell fusion, luciferase | inhibition, % at 12.3 µM | 1.1% of 360,000 active | AID 651610;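 active means mean replicate inhibition score of at least 50 and every replicate individually at or above 50; inconclusive means only one of the two criteria met; inactive means mean below 50 and not all replicates reaching 50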;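 further: 0% = plate neutral controls and 100% = maraviroc near 300 nM; one replicate is shown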
Yeast UUG start: alters start codon recognition fidelity in yeast | S. cerevisiae UUG-firefly luciferase reporter, luminescence/redox ratio | activity score, % at 18.7 µM | 0.13% of 350,000 active | AID 602363;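 active means replicate mean at a twofold rise or more, about +100% in these data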;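 further: firefly luciferase made from a UUG start codon reports start codon fidelity; reporter light over untreated wells divided by growth signal over untreated wells; some hits fall short of that in this replicate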
Starred values were filed as active, the others as inactive; ? = inconclusive; [ ] = another dose, or the depositor's remark. Not all compounds are listed; rates above refer to the full screens.

The line under a structure holds: HIV Env fusion | Yeast UUG start
C[C@@H]1CN([C@H](C)CO)C(=O)Cc2cc(NC(=O)Nc3ccc(C(F)(F)F)cc3)ccc2O[C@@H]1CN(C)Cc1ccc(C(=O)Nc2ccccc2N)cc1
    10[16.7 µM] | 0
Cc1ccccc1-c1cnc2c(c1)C(=O)N([C@@H](C)CO)C[C@H](C)[C@H](CN(C)CC1CCOCC1)O2
    14[16.7 µM] | -19
C[C@H](CO)N1C[C@H](C)[C@@H](CN(C)C(=O)c2ccccn2)Oc2ncc(-c3ccccc3)cc2C1=O
    0[16.7 µM] | -13
O=C(C[C@H]1CC[C@H](NC(=O)c2cccc(F)c2)[C@@H](CO)O1)NCc1ccccc1
    -12[16.7 µM] | -8
CC(C)C#Cc1cnc2c(c1)C(=O)N([C@@H](C)CO)C[C@@H](C)[C@H](CN(C)C(=O)c1ccccc1)O2
    -5[16.7 µM] | 4
Cc1ccc(S(=O)(=O)Nc2ccc3c(c2)CC(=O)N([C@@H](C)CO)C[C@H](C)[C@@H](CN(C)S(=O)(=O)c2ccccc2)O3)cc1
    9[16.7 µM] | 10
COCC(=O)N(C)C[C@@H]1Oc2cc(-c3ccccc3)ccc2S(=O)(=O)N([C@H](C)CO)C[C@H]1C
    -1[16.7 µM] | -2
CC(C)NC(=O)Nc1ccc2c(c1)C(=O)N([C@H](C)CO)C[C@H](C)[C@@H](CN(C)S(=O)(=O)c1cccs1)OCCCC[C@H](C)O2
    -35[16.7 µM] | 5
C[C@@H]1CCCCO[C@@H](CN(C)CC2CCCCC2)[C@H](C)CN([C@@H](C)CO)C(=O)c2cc(NC(=O)Cc3ccccc3)ccc2O1
    19[16.7 µM] | 11
CO[C@H]1CN(C)C(=O)c2ccc(NS(=O)(=O)c3ccccc3)cc2OC[C@@H](C)N(Cc2nccs2)C[C@@H]1C
    -11[16.7 µM] | 0
N#C[C@H]1[C@@H](c2ccc(-c3cccc(F)c3)cc2)[C@@H](CO)N1c1nc(-c2ccccc2)cs1
    -1[16.7 µM] | -10
COc1ccc(NC(=O)N(C)C[C@H]2OCCCC[C@@H](C)Oc3ccc(NC(=O)NC4CCCCC4)cc3C(=O)N([C@@H](C)CO)C[C@H]2C)cc1
    -18[16.7 µM] | 107*
C[C@@H]1CN([C@@H](C)CO)C(=O)c2cc(NS(=O)(=O)c3cn(C)cn3)ccc2O[C@@H](C)CCCCO[C@H]1CN(C)C(=O)c1ccccc1
    13[16.7 µM] | 4
COCC#Cc1ccc2c(c1)O[C@H](CN(C)Cc1cncnc1)[C@@H](C)CN([C@@H](C)CO)S2(=O)=O
    -19[16.7 µM] | 3
C[C@H]1CN([C@@H](C)CO)S(=O)(=O)c2ccc(C#Cc3ccc(F)cc3)cc2O[C@H]1CN(C)C(=O)NC1CCCC1
    35[16.7 µM] | -15
CN1C(=O)c2cc(NC(=O)Cc3ccccc3)ccc2OC[C@H]2O[C@H](CC(=O)NCC3CC3)CC[C@@H]21
    6[16.7 µM] | 4
C[C@H]1CN([C@@H](C)CO)C(=O)c2cccc(NC(=O)c3ccc(-c4nccs4)cc3)c2O[C@H]1CN(C)Cc1ccccc1
    1[16.7 µM] | -11
COc1cccc(-c2cnc3c(c2)C(=O)N([C@@H](C)CO)C[C@@H](C)[C@H](CN(C)CC2CCOCC2)O3)c1
    1[16.7 µM] | -6
C[C@H](CO)N1C[C@H](C)[C@@H](CN(C)C(=O)C2CCOCC2)Oc2ncc(C#Cc3cccc(F)c3)cc2C1=O
    0[16.7 µM] | -16
Cc1noc(C)c1NC(=O)Nc1ccc2c(c1)CC(=O)N([C@@H](C)CO)C[C@@H](C)[C@H](CN(C)Cc1ccc(Oc3ccccc3)cc1)O2
    29[16.7 µM] | 6
C[C@@H]1CN([C@@H](C)CO)C(=O)c2cccc(NS(=O)(=O)c3cn(C)cn3)c2O[C@H]1CN(C)CC1CCCCC1
    11[16.7 µM] | 27
CO[C@H]1CN(C)C(=O)c2ccc(NC(=O)NC(C)C)cc2OC[C@H](C)N(C(=O)NC(C)C)C[C@H]1C
    8[16.7 µM] | 9
COc1ccc(S(=O)(=O)Nc2ccc3c(c2)CC(=O)N([C@H](C)CO)C[C@H](C)[C@H](CN(C)Cc2ccc(Oc4ccccc4)cc2)O3)cc1
    -30[16.7 µM] | 2
C[C@@H]1CN([C@H](C)CO)C(=O)Cc2cc(NC(=O)Cc3ccccc3)ccc2O[C@@H]1CN(C)Cc1ccc2c(c1)OCO2
    -21[16.7 µM] | 11
CCCNC(=O)N(C)C[C@@H]1Oc2ncc(C#Cc3ccncc3)cc2C(=O)N([C@@H](C)CO)C[C@@H]1C
    -12[16.7 µM] | -20
NCC[C@H]1CC[C@H](NC(=O)C2CCCCC2)[C@@H](CO)O1
    -28[16.7 µM] | -2
C[C@H](CO)N1C[C@H](C)[C@H](CN(C)S(=O)(=O)c2cn(C)cn2)Oc2ccc(NC(=O)CCCN(C)C)cc2C1=O
    4[16.7 µM] | -3
CNC[C@H]1Oc2cc(C#CCOC)ccc2S(=O)(=O)N([C@@H](C)CO)C[C@@H]1C
    3[16.7 µM] | 4
COc1ccc(NC(=O)Nc2cccc3c2O[C@@H](CN(C)S(=O)(=O)c2cccs2)[C@H](C)CN([C@@H](C)CO)C3=O)cc1
    -15[16.7 µM] | 11
Cc1ccc(S(=O)(=O)N(C)C[C@H]2OCCCC[C@H](C)Oc3ccc(NC(=O)c4ccccc4)cc3C(=O)N([C@@H](C)CO)C[C@@H]2C)cc1
    -22[16.7 µM] | -3
O=C(NC1CCCC1)N[C@@H]1CC[C@H](CC(=O)N2CCOCC2)O[C@H]1CO
    -6[16.7 µM] | -17
C[C@H](CO)N1C[C@H](C)[C@H](CN(C)Cc2cccc(C(=O)O)c2)Oc2ncc(/C=C/c3ccccc3)cc2C1=O
    0[16.7 µM] | 9
Cc1ccc(S(=O)(=O)N[C@H]2CC[C@H](CCNC(=O)C3CCOCC3)O[C@H]2CO)cc1
    -3[16.7 µM] | 1
CCCNC(=O)C[C@H]1CC[C@@H]2[C@H](COc3ccc(NC(=O)Cc4cccs4)cc3C(=O)N2C)O1
    21[16.7 µM] | 0
O=C(N[C@@H]1CC[C@H](CCNS(=O)(=O)c2ccccc2)O[C@H]1CO)c1cccc(F)c1
    -9[16.7 µM] | 1
CO[C@@H]1CN(C)C(=O)c2ccc(NC(=O)C3CCCC3)cc2OC[C@H](C)N(CCC(F)(F)F)C[C@@H]1C
    -22[16.7 µM] | 0
CN1C(=O)c2cc(NC(=O)c3ccc(F)cc3)ccc2OC[C@H]2O[C@@H](CC(=O)NCC3CC3)CC[C@@H]21
    1[16.7 µM] | -10
CC(C)CC#Cc1ccc2c(c1)O[C@@H](CN(C)CC1CC1)[C@@H](C)CN([C@H](C)CO)S2(=O)=O
    -6[16.7 µM] | -17
CO[C@@H]1CN(C)C(=O)c2cc(NC(=O)NC(C)C)ccc2OC[C@@H](C)N(C(=O)NC(C)C)C[C@H]1C
    4[16.7 µM] | -15
CC(C)NC(=O)N(C)C[C@@H]1OCCCC[C@H](C)Oc2ccc(NC(=O)Nc3ccc(C(F)(F)F)cc3)cc2C(=O)N([C@@H](C)CO)C[C@H]1C
    ? | 23
Cc1ccc(S(=O)(=O)Nc2cccc3c2O[C@@H](CN(C)S(=O)(=O)c2cccs2)[C@@H](C)CN([C@@H](C)CO)C3=O)cc1
    13[16.7 µM] | 12
O=C(NCC[C@@H]1CC[C@H](NS(=O)(=O)Cc2ccccc2)[C@@H](CO)O1)C1CCCCC1
    -3[16.7 µM] | 8
COc1ccc(-c2ccc3c(c2)O[C@H](CN(C)C(=O)c2ccccc2F)[C@@H](C)CN([C@H](C)CO)S3(=O)=O)cc1
    5[16.7 µM] | 15
C[C@H]1CN([C@@H](C)CO)S(=O)(=O)c2ccc(C#CCN(C)C)cc2O[C@H]1CN(C)CC1CC1
    -47[16.7 µM] | 19
C[C@@H]1CN([C@@H](C)CO)C(=O)c2cc(NS(C)(=O)=O)ccc2O[C@@H](C)CCCCO[C@H]1CN(C)C(=O)Cc1ccccc1
    6[16.7 µM] | -5
Cc1noc(C)c1NC(=O)N[C@@H]1CC[C@H](CC(=O)Nc2ccccc2)O[C@@H]1CO
    -8[16.7 µM] | -15
C[C@@H]1CN([C@H](C)CO)C(=O)c2cc(NC(=O)Nc3ccc(C(F)(F)F)cc3)ccc2O[C@@H](C)CCCCO[C@@H]1CN(C)S(=O)(=O)c1cccs1
    -24[16.7 µM] | -3
C[C@@H]1CN([C@H](C)CO)C(=O)c2cc(NC(=O)Nc3ccccc3)ccc2O[C@@H](C)CCCCO[C@@H]1CN(C)C(=O)Cc1ccccc1
    4[16.7 µM] | -7
N#C[C@H]1[C@@H](c2ccc(-c3cccc(F)c3)cc2)[C@@H](CO)N1C(=O)NC1CCCC1
    -3[16.7 µM] | 9
CCCNC(=O)C[C@H]1CC[C@@H]2[C@H](COc3ccc(NC(=O)c4cccc(F)c4)cc3C(=O)N2C)O1
    -11[16.7 µM] | -2
COC(=O)C[C@@H]1C=C[C@H](NS(=O)(=O)c2ccc(OC)cc2)[C@H](CO)O1
    -11[16.7 µM] | -15
COCC#Cc1ccc2c(c1)O[C@H](CN(C)S(C)(=O)=O)[C@@H](C)CN([C@@H](C)CO)S2(=O)=O
    -43[16.7 µM] | 20
COc1ccc(S(=O)(=O)Nc2ccc3c(c2)C(=O)N([C@@H](C)CO)C[C@H](C)[C@@H](CN(C)Cc2ccc(C(F)(F)F)cc2)OCCCC[C@H](C)O3)cc1
    20[16.7 µM] | 26
COc1ccccc1S(=O)(=O)N[C@@H]1CC[C@@H](CCNC(=O)C2CCC2)O[C@H]1CO
    -1[16.7 µM] | -18
Cc1noc(C)c1S(=O)(=O)Nc1ccc2c(c1)C(=O)N([C@H](C)CO)C[C@@H](C)[C@H](CN(C)Cc1ccccc1)O2
    1[16.7 µM] | 1
CC(C)CC#Cc1ccc2c(c1)O[C@@H](CN(C)Cc1ccccn1)[C@@H](C)CN([C@@H](C)CO)S2(=O)=O
    12[16.7 µM] | -16
COc1ccc(NC(=O)Nc2cccc3c2O[C@H](CN(C)S(C)(=O)=O)[C@H](C)CN([C@@H](C)CO)C3=O)cc1
    -24[16.7 µM] | -5
C[C@H](CO)N1C[C@H](C)[C@H](CN(C)CC2CCCCC2)Oc2ccc(NC(=O)Nc3cccc4ccccc34)cc2CC1=O
    5[16.7 µM] | 17
COc1ccccc1CNC(=O)C[C@@H]1CC[C@H](NC(=O)CN(C)C)[C@@H](CO)O1
    8[16.7 µM] | -14
COc1ccc(NC(=O)Nc2ccc3c(c2)C(=O)N([C@H](C)CO)C[C@H](C)[C@H](CN(C)S(=O)(=O)c2cn(C)cn2)OCCCC[C@H](C)O3)cc1
    0[16.7 µM] | 5

Continued; the last four above are carried over.
The line under a structure holds: HIV Env fusion | Yeast UUG start
COc1ccc(NC(=O)Nc2cccc3c2O[C@H](CN(C)S(C)(=O)=O)[C@H](C)CN([C@@H](C)CO)C3=O)cc1
    -24[16.7 µM] | -5
C[C@H](CO)N1C[C@H](C)[C@H](CN(C)CC2CCCCC2)Oc2ccc(NC(=O)Nc3cccc4ccccc34)cc2CC1=O
    5[16.7 µM] | 17
COc1ccccc1CNC(=O)C[C@@H]1CC[C@H](NC(=O)CN(C)C)[C@@H](CO)O1
    8[16.7 µM] | -14
COc1ccc(NC(=O)Nc2ccc3c(c2)C(=O)N([C@H](C)CO)C[C@H](C)[C@H](CN(C)S(=O)(=O)c2cn(C)cn2)OCCCC[C@H](C)O3)cc1
    0[16.7 µM] | 5
C/C=C/c1cnc2c(c1)C(=O)N([C@H](C)CO)C[C@H](C)[C@H](CN(C)C(=O)CN1CCOCC1)O2
    -29[16.7 µM] | -6
O=C(C[C@@H]1CC[C@H](NC(=O)CCN2CCCCC2)[C@@H](CO)O1)NCc1ccc(Cl)c(Cl)c1
    -6[16.7 µM] | 0
CC(=O)[C@]12O[C@]3(COC[C@H](c4ccccc4)N3C1=O)[C@@H]1C(=O)N(C)C(=O)[C@@H]12
    1[16.7 µM] | -2
COc1ccc(-c2ccc([C@@H]3[C@@H](CO)N(C(=O)C4CCC4)[C@H]3C#N)cc2)cc1
    -11[16.7 µM] | -10
C[C@@H]1CN([C@H](C)CO)C(=O)Cc2cc(NS(=O)(=O)c3ccc(F)cc3)ccc2O[C@@H]1CN(C)C
    -7[16.7 µM] | 5
C[C@@H]1CN([C@@H](C)CO)C(=O)Cc2cc(NC(=O)C3CCCCC3)ccc2O[C@H]1CN(C)Cc1ccncc1
    -29[16.7 µM] | 0
C[C@@H]1CCCCO[C@@H](CN(C)C(=O)Nc2ccc3c(c2)OCO3)[C@H](C)CN([C@@H](C)CO)C(=O)c2cc(NC(=O)Nc3ccc(F)cc3)ccc2O1
    -11[16.7 µM] | 2
CC(C)C#Cc1ccc2c(c1)O[C@H](CN(C)Cc1cccnc1)[C@@H](C)CN([C@@H](C)CO)S2(=O)=O
    -41[16.7 µM] | 9
O=C(Nc1cccc(S(=O)(=O)N2CCCCC2)c1)[C@@H]1CCCN1S(=O)(=O)c1ccccc1C(F)(F)F
    45 | 22
CO[C@H]1CN(C)C(=O)c2cc(NC(=O)C3CCOCC3)ccc2OC[C@@H](C)N(C)C[C@@H]1C
    9[16.7 µM] | -17
Cc1ccc(S(=O)(=O)Nc2ccc3c(c2)C(=O)N([C@@H](C)CO)C[C@H](C)[C@@H](CN(C)C(=O)Nc2ccc4c(c2)OCO4)OCCCC[C@H](C)O3)cc1
    0[16.7 µM] | 5

Quoted from the listing.
For HIV Env fusion, CC(=O)[C@]12O[C@]3(COC[C@H](c4ccccc4)N3C1=O)[C@@H]1C(=O)N(C)C(=O)[C@@H]12 reads 1[16.7 µM]
For HIV Env fusion, O=C(N[C@@H]1CC[C@H](CCNS(=O)(=O)c2ccccc2)O[C@H]1CO)c1cccc(F)c1 reads -9[16.7 µM]
